Menin-MLL FL inh – qHTS Assay for Inhibitors Targeting the Menin-MLL Interaction in MLL Related Leukemias: Competition With Fluorescein Labeled MLL-derived Peptide; Fluorescence polarization, fluorescein-MLL peptide displacement from menin; FP activity change, % at 61.4 µM; 290,000 tested, under 10 active; inconclusive = falling polarisation curve, or a change in total fluorescence; inactive = total fluorescence flat and polarisation flat or rising; no compound was filed as active; the % refers to the polarisation; negative = inhibition;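 note: % of control where 0% means no effect; inhibitors lower the polarisation; unlabelled MLL peptide was the positive control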
Sfp inh – qHTS Assay for Inhibitors of Bacillus subtilis Sfp phosphopantetheinyl transferase (PPTase); AID 1490, 2009; 310,000 tested, 3.5% active; Potency, µM, for inactives: max response, negative = inhibition, most hits filed as inhibitors; 4'-phosphopantetheinyl transferase ffp (Bacillus subtilis), Q9F4F7; Biochemical Sfp PPTase activity, qHTS; active = well fitted inhibition curve with a large enough effect; inconclusive = small, poorly fitted or top-dose-only effect, or another doubt; inactive = no such curve, though single readings can be large or run the other way;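 note: the enzyme is Sfp with the accession as filed and its product quenches rhodamine fluorescence; potency is the fitted concentration of half-maximal effect; 0% = enzyme reaction without inhibitor and -100% = no enzyme wells; top concentration of the series not given in the record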
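Sfp 15 nM + cpd, 15 min RT; start w/ rhodamine-CoA 5 uM, BHQ-2-YbbR 12.5 uM (final); 50 mM Hepes pH 7.6, 10 mM MgCl2, 0.01% NP-40, 0.01% BSA; read 525/598 nm at 0 and 30 min.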
gsp antagonist – qHTS for Antagonists of gsp, the Etiologic Mutation Responsible for Fibrous Dysplasia/McCune-Albright Syndrome: qHTS; gsp-mutant cells, cAMP HTRF, 30 min; control for the full effect not named in the record; Potency, µM (top dose mostly 76.9 µM), inactives show at the highest dose activity change, negative = inhibition, actives largely listed as inhibitors; 340,000 tested, 0.4% active; active = falling curve of any shape with a large fitted effect; inconclusive = falling curve, mostly with a smaller effect; inactive = flat or rising curve; cell line not stated here;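 note: intracellular cAMP measured with PDE inhibitor Ro 20-1724 present during compound exposure; potency is the fitted concentration of half-maximal effect; % is set by controls: 0 for no effect and ±100 for the full control effect; nearly all actives have a fitted effect of over 65% in size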
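HTRF cAMP read-out (cAMP-d2 plus anti-cAMP antibody-K in lysis buffer, 30 min RT). Before lysis, cells are exposed to compounds with […] for 30 min at 37C in DPBS containing Ca/Mg, BSA and Tween 20.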
ClpP mod – qHTS Assay for Activators of ClpP; AID 651965, 2013; 340,000 tested, 1.9% active; ATP-dependent Clp protease proteolytic subunit (Bacillus subtilis (strain 168)), P80244; Potency, µM (series often up to 57.5 µM), inactives show at the highest dose activity change, negative = active; purified B. subtilis ClpP, FRET peptide cleavage, 20 min; active = well fitted falling curve with a large enough effect; inconclusive = small, poorly fitted or top-dose-only effect; inactive = no such curve, though single readings can be large or run the other way; note: potency is the fitted concentration of half-maximal effect; the source files actives as falling curves though it sought activators and does not explain the sign; nearly all actives have a fitted effect of over 65% in size; many hits overshoot -100%
Target sequence (P80244 whole entry, looked up): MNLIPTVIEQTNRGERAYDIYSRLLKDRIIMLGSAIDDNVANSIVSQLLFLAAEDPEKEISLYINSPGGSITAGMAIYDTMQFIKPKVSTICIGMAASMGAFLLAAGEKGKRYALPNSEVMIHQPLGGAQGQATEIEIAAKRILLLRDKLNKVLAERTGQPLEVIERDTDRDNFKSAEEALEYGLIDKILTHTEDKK
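Purified B. subtilis ClpP, 10 microg/mL final in Tris/HCl pH8 with KCl, BSA, glycerol and Tween-20, cleaved an Abz/nitrotyrosine-quenched decapeptide. Fluorescence (ex 320, em 430) was read at 0 and 20 min at room temperature. Delta was normalized to 5.8 microM ADEP and DMSO/no-enzyme controls.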
CtBP-E1A blk – qHTS Assay for Inhibitors of the CtBP/E1A Interaction; AID 651724, 2012; AlphaScreen GST-E1A/His-CtBP binding, 1536-well; active compounds read low; control for the full effect not named in the record; 340,000 tested, 0.49% active; CtBP / adenovirus E1A interaction (AlphaScreen); activity change, % (no concentration beside the values); in the data active means activity change below about -65%; inconclusive means about -30% to -65%; inactive means above about -30%; note: % is set by controls: 0 for no effect and ±100 for the full control effect
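Protein mix (5X: 125 nM each GST-E1A, His-CtBP) was incubated with pinned compound 2 h at 37 deg C in dark, in 50 mM Tris pH 8.0 buffer with 300 mM NaCl. Glutathione donor and nickel acceptor beads followed; AlphaScreen signal read after 1 h.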
TRPV1 potentiator – HTS Assay for Compounds that Act as Potentiators of the Vanilloid Receptor 1; 320,000 tested, 0.02% active; potentiation, % at 8.33 µM; Transient receptor potential cation channel subfamily V member 1 (Homo sapiens), Q8NER1; TRPV1-expressing cells, Fluo-8 calcium influx, capsaicin EC20 potentiation; host cell line not named in the record; control for the full effect not named in the record; AID 540277, 2011; active means potentiation above 80%; inconclusive means 30% to 80%; inactive means below 30%; note: 0% is about no effect
Target sequence (Q8NER1 whole entry, looked up): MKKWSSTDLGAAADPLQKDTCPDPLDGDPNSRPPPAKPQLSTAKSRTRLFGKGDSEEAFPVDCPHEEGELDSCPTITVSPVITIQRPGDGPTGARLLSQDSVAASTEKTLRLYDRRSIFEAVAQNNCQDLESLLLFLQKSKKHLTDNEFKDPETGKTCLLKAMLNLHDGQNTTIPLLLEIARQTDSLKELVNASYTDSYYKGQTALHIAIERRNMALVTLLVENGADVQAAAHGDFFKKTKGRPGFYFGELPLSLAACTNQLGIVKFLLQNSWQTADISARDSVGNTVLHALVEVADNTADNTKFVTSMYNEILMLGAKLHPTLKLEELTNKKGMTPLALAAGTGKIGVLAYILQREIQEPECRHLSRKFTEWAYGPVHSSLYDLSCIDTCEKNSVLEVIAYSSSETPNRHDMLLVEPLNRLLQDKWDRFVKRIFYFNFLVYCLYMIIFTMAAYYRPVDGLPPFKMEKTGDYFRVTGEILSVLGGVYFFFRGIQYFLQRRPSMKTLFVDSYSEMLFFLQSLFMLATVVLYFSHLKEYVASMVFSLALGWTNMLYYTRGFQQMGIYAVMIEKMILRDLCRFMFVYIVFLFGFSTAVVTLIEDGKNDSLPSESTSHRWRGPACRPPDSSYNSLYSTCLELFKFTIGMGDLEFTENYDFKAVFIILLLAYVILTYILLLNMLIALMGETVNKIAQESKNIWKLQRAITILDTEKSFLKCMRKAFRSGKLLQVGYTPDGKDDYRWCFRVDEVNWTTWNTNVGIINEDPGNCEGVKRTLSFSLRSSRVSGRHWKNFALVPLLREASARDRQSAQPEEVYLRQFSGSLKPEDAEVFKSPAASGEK
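Fluo-8 calcium influx in TRPV1-expressing cells, kinetic read (ex 480/em 520 nm). Compound added and read 3 min for agonist activity, followed by capsaicin at EC20 final and 2 min further read for enhancement.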
gsp agonist – qHTS for Agonist of gsp, the Etiologic Mutation Responsible for Fibrous Dysplasia/McCune-Albright Syndrome: qHTS; gsp mutant cells, cAMP HTRF, 30 min; control for the full effect not named in the record; Potency, µM (highest dose often 76.9 µM), for the others: top-dose activation (cAMP increase), usual class: activators; 340,000 tested, 0.13% active; AID 624287, 2012; active = well fitted activation curve with a large enough effect; inconclusive = small, poorly fitted or top-dose-only effect, or another doubt; inactive = no such curve, though single readings can be large or run the other way; cell line not stated here;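 note: phosphodiesterase inhibitor Ro 20-1724 added with compounds to block cAMP breakdown; potency is the fitted concentration of half-maximal effect; nearly all actives have a fitted effect of over 60% in size; about a fifth of the inactives were tested at one dose only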
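Cells in DMEM/10% FBS with G418 were pretreated with compounds in DMSO plus […] (300 uM stock) for 30 min at 37C. cAMP was measured by HTRF (cAMP-d2 plus anti-cAMP antibody-K) after 30 min at room temperature.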
* hit, by the source's call; ? = inconclusive; / = no result given; & = joins results of further samples; [ ] = dose if it differs, or a comment.

SMILES	Menin-MLL FL inh	Sfp inh	gsp antagonist	ClpP mod	CtBP-E1A blk	TRPV1 potentiator	gsp agonist
Cn1cc(S(=O)(=O)N2CCOCC2)cc1C(=O)NCCc1ccccc1	-0.8	24%	2%	-3.6%	10	-8	23%
O=C(NNc1ccc([N+](=O)[O-])cc1)Nc1ccccc1	-2.3	?	-5%	0.7%	/	-3	-30%[inhibitor]
Cc1cc(-n2c(C)cc(C(=O)COc3cc(F)ccc3[N+](=O)[O-])c2C)no1	/	/	-4%	1.8%	/	6	?
CCc1ccc(CNC(=O)CCc2nnc(Cc3cccc(C(F)(F)F)c3)o2)nc1	3.8	28%	7%	-0.6%	0	-4	2%
COc1ccc(CN(C)C(=O)c2ccc(NC(=O)CC3SC(N4CCCC4)=NC3=O)cc2)c(OC)c1 (stereo not given)	/	/	11%	/	-8	3	-3%[15.4 µM]
CC(=O)NC(CC(=O)Nc1ccc(S(=O)(=O)N2CCCCC2)cc1)c1ccccc1 (stereo not given)	0.7	6%	-5%	1.3%	1	10	-2%
Cc1cc(SCC(=O)NCCN2C(=O)CSC2=O)nc2c(C)cccc12	8.2	-17%	5%	-1.1%	-12	9	11%[15.4 µM]
O=C(COc1cccc2cccnc12)N/N=C/c1ccc(O)cc1	-0.9	9%	-6%	1.7%	-14	-1	-9%[15.4 µM]
CCn1c(SCC(=O)NC(C)(C)C)nnc1-c1ccoc1C	0.5	12%	9%	-1.3%	3	15	-38%[inhibitor]
N/C(=N\OC(=O)CN1C(=O)c2ccccc2C1=O)c1ccc(Cl)cc1	-2.3	18%	2%	-2.8%	/	-2	-1%
Cc1cc(C)cc(Oc2nc3c(C)cccn3c(=O)c2/C=C(\C#N)C(=O)NC2CCS(=O)(=O)C2)c1 (stereo not given)	5.7	5%	-2%	?	-6	18	-3%
CCOc1ccccc1C(=O)Nc1nncs1	2.2	12%	7%	-11%	5	9	-16%
O=C(CSc1nc2ccccc2s1)Nn1cnnc1	2.9	-17%	-13%	1.1%	0	-16	19%
CN1CCN(C(=O)c2cc(C(C)(C)C)cc(C(C)(C)C)c2)CC1	2.4	7%	5%	/	-24	-19	?
COc1ccc(N2CCN(C(=O)c3cc(=O)c4cc(C)ccc4o3)CC2)cc1	2.8	6%	-9%	-1.3%	-14	-6	-4%[15.4 µM]
CCOC(=O)C1CCN(c2c(C(=O)c3ccccc3)cnc3ccc(CC)cc23)CC1	-1.6	-2%	?	0.2%	-8	-9	-42%[inhibitor]
CC1=C(C(N)=O)C(c2ccccn2)n2nc(SCc3ccccc3)nc2N1 (stereo not given)	4.8	-4%	7%	-4.4%	-2	1	-2%
Cc1ccc(C(C)C)c(OCc2nnc(SCC(=O)Nc3ncc(C)s3)n2C)c1	0.4	13%	7%	0.3%	3	-7	-18%
CC1Cc2ccccc2N1C(=O)CSc1nnc(Cn2nnc3ccccc32)n1C (stereo not given)	2.2	9%	?	-4.8%	-16	?	-27%
CCC(C)Nc1c([N+](=O)[O-])cc(C)cc1[N+](=O)[O-] (stereo not given)	-0.5	-2%	6%	-1.2%	?	/	-34%[inhibitor]

The closing 2 compounds of the section before are carried over, then new ones follow.
SMILES	Menin-MLL FL inh	Sfp inh	gsp antagonist	ClpP mod	CtBP-E1A blk	TRPV1 potentiator	gsp agonist
CC1Cc2ccccc2N1C(=O)CSc1nnc(Cn2nnc3ccccc32)n1C (stereo not given)	2.2	9%	?	-4.8%	-16	?	-27%
CCC(C)Nc1c([N+](=O)[O-])cc(C)cc1[N+](=O)[O-] (stereo not given)	-0.5	-2%	6%	-1.2%	?	/	-34%[inhibitor]
CC(=O)NC(CCS(C)(=O)=O)C(=O)Nc1ccc(F)cc1Cl (stereo not given)	-0.7	17%	8%	-0.5%	3	-1	9%
O=c1c2c3c(sc2nc2n1CCCC2)CCCC3	3.0	5%	-1%	0.3%	-6	9	12%
CCc1ccc(Oc2coc3cc(OC(=O)c4cc5ccccc5oc4=O)ccc3c2=O)cc1	-0.5	14%	4%	-6.8%	1	7	-9%
CN(C)c1ccc(/C=N/NC(=O)Cn2nnc3ccccc32)cc1	0.4	-11%	8%	?	-4	-11	-47%[inhibitor]
CCOC(=O)C1=C(N)Oc2ccc3ccccc3c2C1c1cccnc1 (stereo not given)	3.2	-2%	32µM*	1.2%	-9	0	14%
COc1cccc(CNc2ncnc3cc(Cl)ccc23)c1	3.9	-23%	-5%	-4.8%	/	-1	-7%
CCC(=O)C1CCCN(C(=O)CCc2nnc(-c3ccc(C(C)=O)s3)o2)C1 (stereo not given)	4.3	16%	1%	-1.7%	3	-2	-26%
Cc1ccc(S(C)(=O)=NC(=O)NC(=O)c2c(Cl)cccc2Cl)cc1 (stereo not given)	2.1	16%	10%	-7.8%	-21	9	2%[15.4 µM]
CCCCN(CC)C(=O)Cn1c(=O)sc2ccccc21	3.8	1%	-12%	-2.0%	-10	-1	1%
O=C(C1CCN(S(=O)(=O)c2ccccc2)CC1)N1CCCCCC1	/	3%	1%	-5.2%	-19	0	-44%[inhibitor]

Of the compounds above, these contain two or more sulfur atoms:
SMILES	Menin-MLL FL inh	Sfp inh	gsp antagonist	ClpP mod	CtBP-E1A blk	TRPV1 potentiator	gsp agonist
Cc1cc(SCC(=O)NCCN2C(=O)CSC2=O)nc2c(C)cccc12	8.2	-17%	5%	-1.1%	-12	9	11%[15.4 µM]
O=C(CSc1nc2ccccc2s1)Nn1cnnc1	2.9	-17%	-13%	1.1%	0	-16	19%
Cc1ccc(C(C)C)c(OCc2nnc(SCC(=O)Nc3ncc(C)s3)n2C)c1	0.4	13%	7%	0.3%	3	-7	-18%

Just Sfp inh and CtBP-E1A blk (two entries from above):
canonical_smiles	Sfp inh	CtBP-E1A blk
Cc1cc(SCC(=O)NCCN2C(=O)CSC2=O)nc2c(C)cccc12	-17%	-12
Cc1ccc(C(C)C)c(OCc2nnc(SCC(=O)Nc3ncc(C)s3)n2C)c1	13%	3

More results follow:
SMILES	Menin-MLL FL inh	Sfp inh	gsp antagonist	ClpP mod	CtBP-E1A blk	TRPV1 potentiator	gsp agonist
COc1cc2oc(=O)ccc2cc1-c1c(OC)ccc2ccc(=O)oc12	/	/	9%	-8.4%	-1	/	23%
COc1ccccc1-n1c(C)nnc1SCC(=O)Nc1cc(C)cc(C)c1	2.2	-6%	3%	-0.2%	3	14	-20%
O=C(Cn1cnc2c(nnn2Cc2ccc(Cl)cc2)c1=O)NCC1CCCO1 (stereo not given)	3.2	4%	14%	-0.2%	2	-21	?
Cc1cccc(OCC(=O)N/N=C\C=C\c2ccc3c(c2)OCO3)c1C	1.4	17%	1%	-13%	14	6	-20%
CCCc1ccc(OCC(O)CN2CCCC2)cc1 (stereo not given)	4.6	-14%	17%	-0.8%	3	2	2%[15.4 µM]
CCOC(=O)Cn1cnc([N+](=O)[O-])n1	6.0	-1%	4%	-0.3%	2	17	21%
CCN(CC)CC(=O)Nc1c(C)cc(C(C)(C)C)cc1C	0.1	-8%	7%	-1.8%	7	-20	5%
CCOc1cc(C2C3=C(CCCC3=O)N(CC(=O)O)C3=C2C(=O)CCC3)ccc1OC	-0.3	26%	-3%	1.0%	6	-5	23%
CC(C)=CC(=O)N1CCC(n2nccc2NC(=O)CCc2ccccc2)CC1	/	7%	7%	-0.3%	2	26	-25%
COc1ccc(-c2nnc(SCC(=O)Nc3cc(F)ccc3C)o2)cc1	2.6	-1%	1%	84%	0	-11	-17%

Part of the list above, field by field:
> CCOc1cc(C2C3=C(CCCC3=O)N(CC(=O)O)C3=C2C(=O)CCC3)ccc1OC
  Menin-MLL FL inh: -0.3 | Sfp inh: 26% | gsp antagonist: -3% | ClpP mod: 1.0% | CtBP-E1A blk: 6 | TRPV1 potentiator: -5 | gsp agonist: 23%
> CC(C)=CC(=O)N1CCC(n2nccc2NC(=O)CCc2ccccc2)CC1
  Menin-MLL FL inh: / | Sfp inh: 7% | gsp antagonist: 7% | ClpP mod: -0.3% | CtBP-E1A blk: 2 | TRPV1 potentiator: 26 | gsp agonist: -25%

(cont.)
SMILES	Menin-MLL FL inh	Sfp inh	gsp antagonist	ClpP mod	CtBP-E1A blk	TRPV1 potentiator	gsp agonist
CC[C@H](C)/C=C/C1=CC2=C(Cl)C(=O)[C@@]3(C)OC(=O)C(C(=O)[C@H](C)[C@@H](C)O)=C3C2=CO1	/	/	?	-3.2%	1	/	-9%
O=C(OCc1cn([C@H]2C[C@H](c3ccc(Cl)cc3)N(C(=O)c3cccs3)C[C@@H]2O)nn1)c1ccccc1	/	/	/	1.9%	6	/	-23%
O=C(N/N=C/C1CC=CCC1)c1ccc(Cl)cc1O (stereo not given)	12	20%	-19%	-14%	-8	-24	9%
COCCNC(=O)CN1C(=O)COc2ccc(S(=O)(=O)N3CCCCCC3)cc21	/	8%	4%	2.2%&-0.7%	2	6	19%
Cc1ccc(N2CC(C(=O)Nc3ccc4c(c3)OCO4)CC2=O)cc1 (stereo not given)	2.9	-9%	15%	0.4%	0	-30	?
Cc1oc(/C=N/NC(=O)CC2(C)OCCO2)cc1Br	2.9	5%	10%	/	-9	4	25%[15.4 µM]
NNC(=O)c1sccc1OCc1ccc(Cl)cc1	-0.3	-3%	6%	/	0	5	4%[15.4 µM]
O=C(COc1ccc2c3c(c(=O)oc2c1)CCCC3)NCc1ccncc1	/	18%	2%	4.2%	2	-12	?
